Beta apoptosis: beta cell apoptosis inhibition; 300,000 tested, 0.8% active; protection from apoptosis, % (no concentration beside the values); INS-1E cytokine-induced death, ATP luminescence, 48 h; percent of positive-control rescue, neutral wells zero;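 active = all replicates at 75% or more, or half of them and the mean; inconclusive = half reach 75% but not the mean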;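 also: 0% = cytokine-treated negative control wells and 100% = positive control rescue; higher means more ATP so stronger rescue from cytokine killing; wells of about 40 µL received 100 nL stock; the first replicate is given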
Calb FLC: C. albicans growth modulation with fluconazole. C. albicans CaCi-2 (fluconazole-resistant clinical isolate) + fluconazole, Alamar Blue growth, 48 h. 300,000 tested, 0.57% active. growth inhibition, % (concentration not given with the values);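 active = most replicates above 75%; inconclusive = exactly half above 75%; inactive = most below 75%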;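 also: all wells also contain fluconazole at 8 µg/ml as a sub-toxic cotreatment; 0% = median of DMSO wells and 100% = median of geldanamycin control wells; wells of about 8 µL received 7.5 nL stock; the first replicate is given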
LANA-H2B inh: blocks KSHV LANA binding to histone H2A/H2B; Q9QR71; inhibition, % (concentration not given with the values); 320,000 tested, 0.6% active; AID 2629; cell-free LANA-H2A/H2B peptide, fluorescence polarization; in the data active = inhibition mostly above about 10%, no sharp cut-off; inactive = mostly below about 6.7%;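 also: stock transfer was 7.5 nL into about 10 µL; 0% = median of vehicle wells and 100% = median of positive control wells; one replicate is shown; the record names a cut of 25% in any replicate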
T cruzi repl: blocks replication of Trypanosoma cruzi; 300,000 tested, 1.4% active; inhibition, % (concentration not given with the values); T. cruzi beta-gal in NIH3T3, luminescence, 90 h;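 active = mean inhibition across valid replicates above about 55%, limit read from the data; inconclusive = mean below that limit but half or more replicates reach it; inactive = mean below it, under half of replicates reach it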;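 also: signal also drops with host cell toxicity which is not excluded here; 0% = plate median of DMSO wells and 100% = zero luminescence signal; higher percent means less beta-gal luminescence so fewer parasites; stock transfer was 50 nL into about 50 µL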
Bfl-1 A1 inh: inhibitors of the anti-apoptotic protein A1, read as caspase activation | MEF A1-2A-BIM cells, Caspase-Glo 3/7 luminescence, 3 h; percent of clofoctol response, vehicle zero | caspase activation, % (concentration not given with the values) | 330,000 tested, 0.066% active | AID 2462;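 active = over half of replicate activation scores above 10%, or exactly half above 10 with the replicate mean above 10; inconclusive = replicate mean below 10 yet half the replicates above 10; inactive = over half of replicates below 10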;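 also: wells of about 30 µL received 50 nL stock; many hits fall short of the cut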
B2AR ag: agonists of human beta-2 adrenergic receptor inducing internalization. P07550. response, % (concentration not given with the values). 340,000 tested, 0.43% active. Am2.2-beta2AR cells, FAP receptor internalization, flow cytometry; reference of the scale not given here;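 active = response above a set limit, near 3 SD of response in nonfluorescent compounds, cut at about 42% in these data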;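 also: stock transfer was 100 nL into about 11 µL; a reference agonist was the positive control; negative values mostly stem from fluorescent compounds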
Target sequence (P07550 whole entry, looked up): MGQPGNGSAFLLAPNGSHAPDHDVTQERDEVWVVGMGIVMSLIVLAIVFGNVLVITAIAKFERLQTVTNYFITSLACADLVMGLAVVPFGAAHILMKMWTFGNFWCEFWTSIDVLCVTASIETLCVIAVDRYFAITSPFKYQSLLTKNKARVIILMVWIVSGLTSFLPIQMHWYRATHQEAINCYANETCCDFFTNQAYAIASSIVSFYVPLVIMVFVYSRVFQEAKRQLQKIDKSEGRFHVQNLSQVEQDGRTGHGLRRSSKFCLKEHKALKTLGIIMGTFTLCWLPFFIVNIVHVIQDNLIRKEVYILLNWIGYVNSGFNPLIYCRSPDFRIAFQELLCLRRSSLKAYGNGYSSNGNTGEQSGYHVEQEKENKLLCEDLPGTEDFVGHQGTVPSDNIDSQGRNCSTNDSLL
RanGTP-Imp inh: disruptors of Ran-importin-beta complex formation – biochemical, FRET, CFP-Ran, YFP-importin-beta, homogeneous, primary screen | inhibition, % (no concentration beside the values) | 300,000 tested, 1.1% active | cell-free CFP-Ran/YFP-importin-beta FRET ratio;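 active = most replicates above 15%; inconclusive = exactly half above 15%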;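 also: 0% = DMSO wells and 100% = Ran loaded with GDP instead of GTP; wells of about 40 µL received 100 nL stock; the first replicate is given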
UCH37 DUB inh: human UCH37 deubiquitinating enzyme inhibition. Q9Y5K5. purified proteasome/UCH37, Ub-AMC cleavage fluorescence. inhibition, % (test concentration not listed). 330,000 tested, 0.33% active. AID 588478;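 active = mean of two replicates above 20%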;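 also: 0% = compound-free wells with enzyme and 100% = wells lacking proteasome; stock transfer was 100 nL into about 20 µL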
Target sequence (Q9Y5K5 whole entry, looked up): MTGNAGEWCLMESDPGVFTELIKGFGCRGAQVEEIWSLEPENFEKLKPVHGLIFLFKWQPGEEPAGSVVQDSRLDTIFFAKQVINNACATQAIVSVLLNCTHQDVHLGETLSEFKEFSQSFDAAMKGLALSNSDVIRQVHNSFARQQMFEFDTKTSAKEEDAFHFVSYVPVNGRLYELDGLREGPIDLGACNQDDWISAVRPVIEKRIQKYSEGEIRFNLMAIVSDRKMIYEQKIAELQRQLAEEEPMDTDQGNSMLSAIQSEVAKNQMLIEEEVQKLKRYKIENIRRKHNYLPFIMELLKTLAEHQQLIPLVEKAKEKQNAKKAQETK
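Material: human UCH37 enzyme supplied as purified proteasome complex. Measure: % inhibition of Ub-AMC cleavage fluorescence. Medium: pH 7.4 Tris-HCl (50 mM) with ovalbumin, ATP-MgCl2, DTT. Times: 30 min preincubation with enzyme, 25 min cleavage at room temperature. Detection: AMC fluorescence intensity at 355/460 nm.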
* hit, by the source's call; i = inactive; ? = inconclusive; / = not tested or not shown.

Start of the data: the first 2 compounds as a preview:
SMILES	Beta apoptosis	Calb FLC	LANA-H2B inh	T cruzi repl	Bfl-1 A1 inh	B2AR ag	RanGTP-Imp inh	UCH37 DUB inh
O=C(Nn1c(O)c(C=C2N=c3ccccc3=N2)sc1=S)c1cccc(Cl)c1	3	18	-10	-4	-0.2	-3	-2.7	6.7
CC(C)(C)SCCNS(=O)(=O)c1ccc(F)cc1	-2	-18	-1.0	-16	0.0	-2	-0.1	1.9

All compounds of this part, from the start:
SMILES	Beta apoptosis	Calb FLC	LANA-H2B inh	T cruzi repl	Bfl-1 A1 inh	B2AR ag	RanGTP-Imp inh	UCH37 DUB inh
O=C(Nn1c(O)c(C=C2N=c3ccccc3=N2)sc1=S)c1cccc(Cl)c1	3	18	-10	-4	-0.2	-3	-2.7	6.7
CC(C)(C)SCCNS(=O)(=O)c1ccc(F)cc1	-2	-18	-1.0	-16	0.0	-2	-0.1	1.9
CCC(OC(=O)c1nsc(Cl)c1Cl)C(=O)NC(C)(C)C (stereo not given)	-9	3	-7.2	-2	-0.1	7	-2.7	4.3
CCc1ccccc1N(CC(=O)Nc1cccnc1)S(=O)(=O)c1ccccc1	5	-2	0.0	-1	0.6	-1	5.8	1.9
Cn1c(=O)c2sccc2n2c(CCCC(=O)NCc3ccc(F)cc3)nnc12	4	-2	-2.4	-2	0.1	-6	-1.5	6.1
C=CCOC(=O)Cn1cnc2c(sc3nc(C)cc(C)c32)c1=O	-4	-1	1.4	12	-0.8	-4	-3.7	-2.0
O=C1CC(C(=O)Nc2ccc(O)c(C(=O)O)c2)C(c2ccccc2)O1 (stereo not given)	-13	4	-0.4	-1	0.3	6	-4.2	-41
O=C(NCc1cccnc1)c1ccc(COc2ccccc2Br)cc1	19	39	-6.4	12	0.5	-3	-1.1	6.8
CN1CCN(NS(=O)(=O)c2ccc(Cl)s2)CC1	-7	17	-0.6	-15	0.0	4	0.0	2.8
COc1cccc(C2C3=C(CC(C)(C)CC3=O)Nc3cc(OC)c(OC)cc32)c1 (stereo not given)	/	27	0.3	5	0.3	-5	1.1	-238
COc1ccc(NC(=O)C=C(C)C)cc1Cl	3	4	1.1	-8	-8.8	-3	0.0	5.5
COC(=O)Cn1c(=O)c2c(n(Cc3ccccc3)c1=O)N/C(=C/c1ccc(OC)cc1)C2=O	1	6	-1.9	-2	0.4	12	20*	-6.5
O=C(Nc1cccc([N+](=O)[O-])c1)C1COc2ccccc2O1 (stereo not given)	2	1	1.4	-7	-0.3	-1	-1.9	6.2
COc1cc(OC)c(C2=NOC(C(=O)N3CCc4ccccc4C3)C2)cc1Cl (stereo not given)	-2	9	5.2	15	0.5	-8	-1.7	4.3
Oc1ccc2ccc3cccc[n+]3c2c1	-1	-2	94*	-1	-0.7	-22	i	9.4
O=c1c2c3c(sc2nc2n1CCC2)CCCCC3	-7	0	2.9	11	0.1	-11	-2.4	1.5
Cc1cc(Br)ccc1NC(=O)CCS(=O)(=O)c1cccc2nonc12	-3	60	6.2	-2	-0.6	1	1.6	5.4
CC(C)=CC(=O)Nc1nnc(-c2cccnc2)s1	0	5	-2.0	-14	0.1	-18	2.0	4.7
C[n+]1ccccc1/C=C1\Sc2ccccc2N1CCO	38	0	-11	10	0.0	-7	-1.5	2.4
COc1ccc(S(=O)(=O)Nc2ccc(S(=O)(=O)Nc3nccs3)cc2)cc1	-7	-4	6.6	12	-0.2	9	-2.3	6.5
CN(CC(=O)Nc1cccc(F)c1)C(=O)c1ccccc1Sc1ccccc1C#N	-1	/	-0.2	/	0.7	0	/	4.1
Cc1cc(C)n2nc(C(=O)Nc3ccc(S(=O)(=O)N(C)C)cc3)nc2n1	-9	-8	-1.5	-2	-0.3	-12	2.8	3.9
Cc1c(CCC(C)C)c(=O)n2c([nH]c3ccccc32)c1C#N	53	34	12	-1	0.2	-6	2.2	-304
Cc1ccc(S(=O)(=O)N2CCOCC2)cc1NC(=O)CSc1ncccn1	0	/	1.0	5	0.4	-6	0.7	0.1
COc1ccc(OC)c(-n2c(C)nc3cc(C(=O)O)ccc32)c1	/	-2	-6.4	-16	-0.8	7	1.8	2.1
CN(C)/C=C1/Oc2c(ccc3ccccc23)C1=O	0	13	0.5	10	-0.8	5	-2.9	-2.3
Cc1cccc(NC(=O)c2cc(S(=O)(=O)N3CCc4ccccc43)cn2C)c1	3	-4	-0.7	2	-0.1	3	6.2	-0.9
CCOC(=O)Cc1cc(C)[nH]c1C(=O)OCC	0	1	3.0	-5	2.4	6	-6.4	1.1
Cc1cc(=O)oc2c(C)c(OC(C)C(=O)NCCCn3ccnc3)ccc12 (stereo not given)	2	0	1.4	-7	0.1	1	0.2	-15
CC/C(=C(/CC)c1ccc(O)cc1)c1ccc(O)cc1	-11	/	-0.7	-5	0.2	-2	1.0	2.2
CCCOc1ccc(C(=O)c2ccccc2C(=O)OC2CCOC2=O)cc1OCCC (stereo not given)	-7	/	4.8	/	0.0	-2	/	3.9
CCC(=O)c1cc2c(C)cc(=O)oc2c(C)c1OC(=O)C(C)C	5	-13	1.8	-17	1.3	4	6.8	-101
COc1ccc(C2SCCN2S(=O)(=O)c2ccc(F)cc2)cc1OC (stereo not given)	-3	11	1.6	-2	-0.8	-5	-1.0	1.4
O=C(NCCCO)/C(=C\c1cn(-c2ccccc2)nc1-c1cccnc1)NC(=O)c1ccccc1	-1	0	4.2	-5	1.2	1	?	1.0
O=C(NC1CCN(S(=O)(=O)c2ccc(Cl)cc2)CC1)C1CCCCC1	0	-3	-3.1	-6	0.3	-6	-5.9	3.9
CCOc1ccc(C(O)(CCC(C)C)C(CN2CCOCC2)c2ccccc2)cc1 (stereo not given)	3	-1	-5.5	17	-0.9	2	-9.2	5.9
O=C(Nc1ccccc1C(=O)NCCCN1CCOCC1)c1ccccc1	-2	-9	7.0	9	1.0	1	-4.0	1.4
COc1cccc(-c2sc3ccc(OC)cc3c2-c2ccc(OCCN3CCOCC3)cc2)c1	-4	/	-3.3	/	-0.1	8	/	/
COc1ccc(NC2=NCC(Cc3ccc(Br)cc3)S2)cc1 (stereo not given)	15	-6	-0.9	40	0.1	14	0.9	7.2
COc1ccc(Br)cc1CN(C)CC(=O)NCCc1ccc(S(N)(=O)=O)cc1	-11	-2	0.4	10	-0.5	-3	0.2	2.2
CN(Cc1cccs1)C(=O)c1cc(S(=O)(=O)N2CCOCC2)ccc1F	1	/	2.5	/	0.1	-10	/	4.4
Oc1ccc2ccccc2c1/C=N/n1cnnc1	-11	6	-2.4	-2	0.7	2	3.3	/
CO/N=C/C(c1ccc(Cl)nc1)S(=O)(=O)c1ccccc1 (stereo not given)	-3	7	-1.9	-14	-0.2	-3	?	/
Cc1ccc(-n2c(C)cc(C3N=C(N)Nc4nc5ccccc5n43)c2C)c(C)c1 (stereo not given)	14	-50	8.0	34	0.2	3	?	2.7
O=[N+]([O-])c1cc(/C=N/N2CCN(C3c4ccccc4-c4ccccc43)CC2)ccc1Cl	22	10	/	18	0.3	-1	1.1	/
CCOC(=O)CSc1nc(NCc2ccco2)c2ccccc2n1	1	-22	2.4	-1	0.0	-5	3.3	2.1
COc1ccc(S(=O)(=O)NCCC(=O)N2CCCC2)cc1N(C)S(C)(=O)=O	2	-6	-0.3	-15	-0.1	-3	1.4	1.6
COc1ccc(C(=O)NCCc2ccccc2)cc1[N+](=O)[O-]	1	-6	6.8	-6	-0.1	0	3.0	4.2
Cc1nc(C)c(-c2ccn(C(=O)NC(C)C)n2)s1	-2	-5	2.0	-18	-0.1	1	-1.4	-2.5
CCCOc1c(Br)cc(C2C3=C(CCCC3=O)N(C)C3=C2C(=O)CCC3)cc1OC	0	22	0.3	13	-0.3	2	107*	-464
CCc1ccc(N(CC)C(=O)c2ccc3c(Cl)c4c(nc3c2)CCC4)cc1	9	2	-0.2	22	/	1	0.8	4.4
COc1cccc(C(=O)N2CCN(C(=O)Cc3ccccc3)CC2)c1	-3	-6	1.6	-5	-0.9	-4	1.3	1.3
COc1ccccc1NC(=O)Cn1c([N+](=O)[O-])cnc1C	0	-9	1.9	-13	-0.4	-7	2.8	1.4
CCOC(=O)c1cnc(SCc2nc(N)nc(Nc3ccccc3OC)n2)nc1N	-5	-27	9.7	-11	-0.5	/	3.3	2.9
Cc1ccc(C2C3=C(CC(C)(C)CC3=O)Nc3[nH]c(=S)[nH]c(=O)c32)cc1 (stereo not given)	2	31	2.5	2	-0.3	1	/	2.0
Cc1ccc(-c2ccc(C(=O)Nc3ccccc3)o2)c2ccccc12	-1	3	0.7	0	-0.9	11	?	-8.6
O=C(c1ccc(N2CCOCC2)nc1)N1CCCCC1	-7	9	-0.4	0	0.4	-3	-0.1	-3.3
COCCNC(=S)N/N=C(\C)c1cccc(OC)c1	0	-3	1.4	-18	3.3	-7	4.5	/
O=C(Nc1ccc(CN2CCCCC2)cc1)Nc1ccc(Br)cc1Cl	7	9	-1.5	17	-0.6	20	-1.7	2.2

In the list so far, these contain a COOH group:
SMILES	Beta apoptosis	Calb FLC	LANA-H2B inh	T cruzi repl	Bfl-1 A1 inh	B2AR ag	RanGTP-Imp inh	UCH37 DUB inh
O=C1CC(C(=O)Nc2ccc(O)c(C(=O)O)c2)C(c2ccccc2)O1 (stereo not given)	-13	4	-0.4	-1	0.3	6	-4.2	-41
COc1ccc(OC)c(-n2c(C)nc3cc(C(=O)O)ccc32)c1	/	-2	-6.4	-16	-0.8	7	1.8	2.1

Record cards, from the list above. Screens in order: Beta apoptosis | Calb FLC | LANA-H2B inh | T cruzi repl | Bfl-1 A1 inh | B2AR ag | RanGTP-Imp inh | UCH37 DUB inh
`Cc1nc(C)c(-c2ccn(C(=O)NC(C)C)n2)s1` as listed: -2 | -5 | 2.0 | -18 | -0.1 | 1 | -1.4 | -2.5
`COCCNC(=S)N/N=C(\C)c1cccc(OC)c1` as listed: 0 | -3 | 1.4 | -18 | 3.3 | -7 | 4.5 | /
`COc1ccc(S(=O)(=O)NCCC(=O)N2CCCC2)cc1N(C)S(C)(=O)=O` as listed: 2 | -6 | -0.3 | -15 | -0.1 | -3 | 1.4 | 1.6
`CCOC(=O)c1cnc(SCc2nc(N)nc(Nc3ccccc3OC)n2)nc1N` as listed: -5 | -27 | 9.7 | -11 | -0.5 | / | 3.3 | 2.9
`COc1ccc(C(=O)NCCc2ccccc2)cc1[N+](=O)[O-]` as listed: 1 | -6 | 6.8 | -6 | -0.1 | 0 | 3.0 | 4.2
